# ugtP null kill: compounds lethal to S. aureus RN4220 ugtP deletion mutant; OD600 growth, 16 h; some inactives read as strong as hits; growth inhibition, % (no concentration beside the values); hit rate 0.54% among 330,000; AID 1259309;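 active = z-score under -3 and OD600 up to 0.15 on both plates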;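 note: plate controls were untreated wells for no effect and antibiotic for full effect; wells of about 80 µL received 100 nL stock; the first replicate is given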
# Mtb hypoxia rep: Mtb hypoxia fluorescent reporter inhibition; M. tuberculosis hypoxia-regulated fluorescent reporter, fluorescence; fluorescence inhibition, % (concentration not given with the values); hit rate 0.1% among 300,000; AID 1159583;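 active = 35 to 45% if threefold the growth effect, above 45% if 1.5-fold the growth effect; inactive = the rest, general growth blockers included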;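 note: wells of about 50 µL received 100 nL stock; 0% = vehicle wells and 100% = reference inhibitor wells; whole bacteria with a GFP reporter of the hypoxia response; strong numbers were not always called active; many hits fall short of the cut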
# PrP 5UTR inh: inhibition of PrP 5' UTR reporter expression. cell-based PrP 5' UTR mRNA reporter, plate reader. inhibition, % (no concentration beside the values). hit rate 0.35% among 340,000;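 active = every replicate at 50% or more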;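 note: 0 = median of the neutral control wells; tested in H4 reporter cells; numbers are from one replicate; inactives centre near -14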
# BJeLR viability: BJeLR cell viability loss | BJeLR (HRASV12) viability, CellTiter-Glo ATP luminescence, 48 h; reference of the scale not given here | inhibition, % (no concentration beside the values) | hit rate 0.17% among 300,000;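 active = replicate mean above 50%; inconclusive = above 50% but judged a plate artefact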;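 note: 50 nL library stock added to about 25 µL; numbers are from one replicate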
# Bead autofluor: flagged as autofluorescent in microsphere protease counterscreen; hit rate 3.1% among 360,000; compound autofluorescence counterscreen, microsphere flow cytometry; active compounds read high; fluorescence intensity (test concentration not listed);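 active = at least 3 SD above the mean of all compounds, about 16000 in these data; inconclusive = too few beads counted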;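 note: 100 nL of 1 mM stock went into each well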
# Sa RN4220 lethal: S. aureus RN4220 growth inhibition; AID 1259311; OD600, 16 h; inhibition, % (concentration not given with the values); hit rate 0.33% among 330,000;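 active = z-score of -3 or lower and OD600 up to 0.18 on both plates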;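 note: plate controls were untreated cells for no effect and reference antibiotic for full effect; stock transfer was 100 nL into about 80 µL; one replicate is shown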
# Mtb hypoxia rep growth: recorded beside Mtb hypoxia rep, whose call it bears; growth inhibition, %; measured here: M. tuberculosis growth (absorbance);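 0% = vehicle and 100% = reference antibiotic; read after six days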
# * marks the source's active call; other numbers are inactive results; ? = inconclusive; . = no result given.
SMILES,ugtP null kill,Mtb hypoxia rep,Mtb hypoxia rep growth,PrP 5UTR inh,BJeLR viability,Bead autofluor,Sa RN4220 lethal
Cc1ccccc1N1CCN(C2CCCN(C(=O)c3cc[n+]([O-])cc3)C2)CC1 (stereo unspecified),6.3,0.0,-4.6,-18.8,-6.1,6253,1.0
CCCCn1cnc2c(SCc3cccc(F)c3)nc(N)nc21,-4.5,13.6,14.4,-13.9,.,3461,6.3
CC(C)(C)c1ccc(-c2cc(-c3ccccc3O)[nH]n2)cc1,61.6,5.9,3.7,41.6,-11.7,?,-6.8
COc1ccccc1CCNC(=O)Nc1cccc([N+](=O)[O-])c1,-5.5,5.7,15.8,-5.0,2.2,4588,-9.5
C/C(=C\C#N)n1nc(C)cc1N,1.8,2.4,-7.2,-11.1,0.3,6942,4.7
CCOc1ccc(C2C(C#N)=C(N)SC(N)=C2C#N)cc1OCC,-14.5,3.3,10.7,-8.8,-5.7,10159,-1.3
O=C(COC(=O)Cc1ccsc1)Nc1ccccc1,2.3,6.9,7.3,-9.1,0.1,3858,3.3
COC(=O)Cc1ccc(NC(=S)NCc2ccccc2OC)cc1,3.7,7.3,0.0,-12.5,-4.4,4300,7.5
COc1ccccc1C(=O)NCCC(=O)NCCc1ccccc1,8.4,5.5,4.4,2.2,0.3,5884,2.5
O=C1CSC(c2ccncc2)N1Cc1ccccc1 (stereo unspecified),4.7,0.1,-3.9,-13.2,-2.1,4432,9.4
Cc1cc(C)nc(SCCC(=O)Nc2ccccc2C)n1,-2.2,6.0,-2.8,-7.4,-2.7,2454,-12.5
Cc1cccc(NC(=S)NCc2ccccn2)c1,0.2,.,.,-18.7,-0.9,2002,0.0
O=C(CN1CCN(Cc2ccccc2Cl)CC1)NN=C/C=C/c1ccccc1[N+](=O)[O-],-0.8,-5.9,-9.4,.,.,.,1.6
Cc1nc(-c2ccccn2)nc(N2CCOCC2)c1Cl,1.8,5.0,4.5,-17.6,2.5,?,2.4
COC(=O)c1c(NC(=O)CCCC(=O)O)sc2c1CCCCC2,-7.2,19.8,13.3,-0.3,3.2,3504,8.3
CCc1ccc2oc(-c3ccc(N)cc3)nc2c1,23.8,7.4,7.3,.,-7.5,10399,-0.3
CC(=O)Nc1ccc(Nc2nc3ccccc3n3cnnc23)cc1,-0.4,-4.4,-0.6,-4.2,-6.8,3256,6.2
CCCSc1nc(C)c(CC(=O)OCC)c(=O)[nH]1,4.0,.,.,4.7,-9.0,4571,-4.5
CN(Cc1ccccc1NCC(=O)Nc1ccccc1C#N)C1CCCCC1,2.0,10.2,2.9,7.7,4.8,3270,9.2
CCOC(=O)N1CCN(C(=O)c2ccc(S(=O)(=O)Nc3ccccc3)cc2)CC1,5.6,1.5,7.5,-19.1,.,3117,6.7
CC(NC(=S)Nc1ccc(F)cc1)C(c1cccs1)N1CCOCC1 (stereo unspecified),1.8,12.3,8.5,3.7,2.1,4404,4.6
Cn1c(N)c(C(=O)COC(=O)CCCOc2ccc(Cl)cc2Cl)c(=O)n(C)c1=O,12.2,4.7,2.5,-10.5,-5.0,3718,-2.9
CC(C)c1ccc(/C=C2\C(=N)N3N=C(CC(=O)N4CCCCC4)SC3=NC2=O)cc1,4.0,-6.1,2.4,-27.8,2.7,5715,0.1
OCC[C@H]1C[C@@H](O)[C@H](O)[C@]2(OCCc3ccccc32)O1,4.1,9.9,3.8,-1.5,.,4030,-10.1
Cc1ccc(S(=O)(=O)NCC(=O)OCC(=O)NCc2ccc3c(c2)OCO3)cc1,1.4,7.7,2.4,-10.1,.,7773,3.3

# (further entries)
SMILES,ugtP null kill,Mtb hypoxia rep,Mtb hypoxia rep growth,PrP 5UTR inh,BJeLR viability,Bead autofluor,Sa RN4220 lethal
O=C(CC(Nc1ccccc1Cl)C(=O)OCC(=O)c1cccs1)c1ccccc1 (stereo unspecified),-2.8,11.8,6.5,-4.7,-3.4,5160,1.7
Fc1ccc(OCc2nn3c(Cn4nnc5ccccc54)nnc3s2)cc1,-5.7,-1.9,-1.5,-17.7,-17.9,10188,-3.4
CC(=O)NC1Sc2ccccc2N=C1c1ccccc1 (stereo unspecified),.,.,.,-69.8,-1.4,2952,.
CCOc1cccc(C(=O)Nc2nc(-c3ccc(S(=O)(=O)N4CCOCC4)cc3)cs2)c1,0.6,.,.,-19.7,3.0,4351,-1.8
CC(C)CC1COCCS(=O)(=O)N1Cc1ccc(Cl)c(Cl)c1 (stereo unspecified),-3.2,0.1,-6.2,.,.,.,2.7
Cc1cc(C)c(C)c(N=Nc2nc3ccccc3n2C)c1C,8.3,7.4,7.0,-79.6,10.7,1879,1.5
O=C1c2ccccc2C(=O)N1C/C=C/c1ccccc1,-4.5,17.3,16.5,-16.3,-4.3,3971,2.2
CC(=O)c1cc(NC(=O)c2cccc(C(F)(F)F)c2)c(=O)oc1C,2.6,6.8,10.3,-30.7,7.0,4376,3.6
O=C(NC1CC1)C1=C[C@H](C2CC2)C[C@H](OCCCCO)O1,.,.,.,-4.8,-1.5,3682,.
COc1ccc(CNC(=O)C(C)NC(=O)c2cc3ccccc3o2)cc1 (stereo unspecified),1.4,.,.,0.7,4.1,2498,-0.9
COc1ccc(-c2noc(CNC(=O)CCCN3C(=O)[C@H]4CC=CC[C@H]4C3=O)n2)cc1,-3.2,0.4,4.3,-12.5,2.4,5894,-0.7
Cc1ccc(S(=O)(=O)N(C)C)cc1NC(=O)COC(=O)CCC(=O)c1cccs1,4.1,-2.3,4.8,-23.4,1.8,4322,5.7
Cc1noc(NS(=O)(=O)c2ccc(NC(=O)c3cnc4scc(C)n4c3=O)cc2)c1C,-1.5,15.1,18.8,-12.9,4.1,6839,10.0
Cc1c(-c2ccccc2)[n+](=O)c(-c2ccco2)c(C)n1[O-],-4.6,-7.2,2.9,-2.6,-2.5,6138,2.1
Cc1ccc(NC(=O)Nc2cccc(C)n2)c(C)c1,0.5,7.1,-0.8,-46.3,-9.9,4078,1.6
O=[N+]([O-])c1cccc(/C=N/Nc2nnc(-c3ccccc3)c(-c3ccccc3)n2)c1,.,.,.,-11.4,-3.6,10547,.
CCN(CC)C(=O)c1[nH]cnc1C(=O)NC(C)C(=O)OC(C)(C)C (stereo unspecified),2.8,4.4,-3.2,.,.,.,4.2
O=C(NCC(=O)N(Cc1ccco1)C(C(=O)NC1CCCC1)c1cccnc1)c1cccs1 (stereo unspecified),-1.0,.,.,-8.5,6.2,3347,-3.5
Cc1ccc(S(=O)(=O)N2CCC(C(=O)N3CCCCCCC3)CC2)cc1,6.7,-1.8,2.0,-20.7,.,4267,0.6
CCc1ccccc1NC(=O)c1ccc(NCCc2ccccc2)c([N+](=O)[O-])c1,-6.8,13.8,9.3,-1.8,-10.6,2113,5.0
COc1ccc(NC(=O)CN(C)C(=O)CNC(=O)Cc2cccc3ccccc23)cc1,-6.2,-5.7,5.9,-10.4,7.8,5951,-4.3
O=C(N=C1c2ccccc2CN1c1ccc(F)c(F)c1)c1cccnc1,-0.5,-8.5,1.5,-28.3,.,2566,4.2
CC(C)N1C(=O)CC2(CC[N+](C)(CCOC(=O)C(O)(c3ccccc3)c3ccccc3)CC2)C1=O (stereo unspecified),7.5,.,.,19.4,0.6,2687,-2.4
Nn1c(Cc2ccccc2F)nnc1SCC(=O)N1CC(=O)Nc2ccccc21,-0.2,10.4,18.6,-18.1,-4.6,9875,4.6
COc1ccc2c(c1)[N+](C)(C)C(C)(C)C=C2C,22.4,8.5,3.7,-12.6,5.0,4961,7.3

# The last six entries of the section above come first, to join the parts:
SMILES,ugtP null kill,Mtb hypoxia rep,Mtb hypoxia rep growth,PrP 5UTR inh,BJeLR viability,Bead autofluor,Sa RN4220 lethal
CCc1ccccc1NC(=O)c1ccc(NCCc2ccccc2)c([N+](=O)[O-])c1,-6.8,13.8,9.3,-1.8,-10.6,2113,5.0
COc1ccc(NC(=O)CN(C)C(=O)CNC(=O)Cc2cccc3ccccc23)cc1,-6.2,-5.7,5.9,-10.4,7.8,5951,-4.3
O=C(N=C1c2ccccc2CN1c1ccc(F)c(F)c1)c1cccnc1,-0.5,-8.5,1.5,-28.3,.,2566,4.2
CC(C)N1C(=O)CC2(CC[N+](C)(CCOC(=O)C(O)(c3ccccc3)c3ccccc3)CC2)C1=O (stereo unspecified),7.5,.,.,19.4,0.6,2687,-2.4
Nn1c(Cc2ccccc2F)nnc1SCC(=O)N1CC(=O)Nc2ccccc21,-0.2,10.4,18.6,-18.1,-4.6,9875,4.6
COc1ccc2c(c1)[N+](C)(C)C(C)(C)C=C2C,22.4,8.5,3.7,-12.6,5.0,4961,7.3
C=CCn1c(SCC(=O)N2CCOCC2)nc(O)cc1=O,-0.6,.,.,-23.2,1.8,2875,0.4
CCCn1c(SCc2ccccc2)nc2c1c(=O)[nH]c(=O)n2C,6.7,.,.,-16.0,1.2,3627,-1.8
Cc1cccc(C)c1NC(=O)CCCSc1nnc(-c2ccc(F)cc2)n1-c1ccccc1,9.1,4.3,1.7,-14.7,-8.8,2813,-0.2
CC(=O)Nc1ccc(C(=O)CSc2nnnn2C)cc1,8.4,-4.1,-4.0,-7.2,1.1,4995,2.6
COc1ccc(/C=C2\SC(=S)N(CCC(=O)NC3C=CS(=O)(=O)C3)C2=O)cc1 (stereo unspecified),.,.,.,-9.1,2.8,5772,.
CCOC(=O)C1=C(O)CSC1=Nc1ccccc1,-7.4,15.9,11.3,-3.6,0.2,.,-8.5
Cc1cc(C)cc(NC(=O)COC(=O)[C@@H](NC(=O)c2ccco2)C(C)C)c1,-0.2,-5.3,5.1,-8.7,4.3,2457,2.7
O=C(CC(=O)N/N=C/c1c(Cl)cccc1Cl)NCc1cccnc1,.,.,.,-11.6,-4.9,4227,.
COC(=O)c1c(C(=O)OC)c2cccc3cc(-c4ccccc4)c4ccc1c4n32,-1.7,15.9,12.2,-10.8,14.7,2987,1.7
Cc1c(C#N)c(=O)oc2ccc3ccccc3c12,-3.4,9.8,7.2,-28.0,12.9,8949,2.2
Cc1c(C(=O)N2CCN(c3ncccn3)CC2)oc2c(Cl)cccc12,2.9,-7.1,9.8,-1.1,-4.3,?,4.0
O=C(NCc1ccc(Cl)cc1)C(=O)NCC(c1cccnc1)N1CCN(c2ccc(F)cc2)CC1 (stereo unspecified),5.0,8.4,4.8,-1.9,-0.2,2470,-3.8
CC(=O)c1cccc(NC(=O)COc2cc(C)on2)c1,3.0,-4.8,-0.7,-17.9,.,4123,2.8

# Copied from the list:
# ugtP null kill with Cc1cc(C)nc(SCCC(=O)Nc2ccccc2C)n1 stands at -2.2
# PrP 5UTR inh with COc1ccc(NC(=O)CN(C)C(=O)CNC(=O)Cc2cccc3ccccc23)cc1 stands at -10.4
# Mtb hypoxia rep growth with CN(Cc1ccccc1NCC(=O)Nc1ccccc1C#N)C1CCCCC1 stands at 2.9
# Mtb hypoxia rep with O=C(CN1CCN(Cc2ccccc2Cl)CC1)NN=C/C=C/c1ccccc1[N+](=O)[O-] stands at -5.9
